miR-21 reporter – raises the signal of a miR-21 reporter; HeLa miR-21 FLuc reporter, luciferase, 48 h; Potency, µM (titrated, usually from 38.3 µM), without a hit: at the highest dose reporter change, positive = more light; 340,000 tested, under 10 active; AID 2288; active = well fitted rising curve with a large enough effect; inconclusive = small, poorly fitted or top-dose-only effect; inactive = no such curve, though single readings can be large or run the other way;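 also: % of control where 0% means no effect; miR-21 action dims this reporter so a rising signal means less miR-21 action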
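HeLa cells endogenously expressing miR-21, stably carrying CMV-driven firefly luciferase with a downstream miR-21 binding site, 2000 cells/well. Titrations up to approximately 40 uM, 48 hours; luciferase luminescence read.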
Active calls of the source: *; ? = inconclusive. Not all compounds are listed (hit frequency here may not be typical).

miR-21 reporter	SMILES
4.2%	Cc1ccccc1CNC(=O)c1ccc(CS(=O)Cc2ccc(Cl)cc2)o1 (centres undefined)
-46.8%	CC(=O)N1CCc2cc(CNC(=O)Cc3ccc(F)cc3)ccc21
2.8%	O=C(Nc1nonc1-c1ccc(Cl)cc1)c1ccccc1F
8.1%	COc1cccc(NC(=O)Cn2c(=O)n(Cc3ccccc3)c(=O)c3ccccc32)c1
24.5%	COc1ccc(-n2ccnc(NCCc3ccc(Cl)cc3)c2=O)cc1OC
1.0%	CCN(CC)C(=O)Cn1ncc2c([nH]c3ccc(C)cc32)c1=O
11.3%	Cc1ccc(NC(=O)CSc2nc3ccccc3n2CC(=O)N2CCC(C)CC2)cc1C
27.6%	CCCCCn1c(CCNC(=O)c2ccc(F)cc2)nc2ccccc21
-2.8%	CCOC(=O)c1ccc(NC(=O)c2cc(=O)c3cc(CC)ccc3o2)cc1
0.6%	COC(=O)c1cc(S(=O)(=O)N2CCN(c3ccc(C)cc3C)CC2)cn1C
-1.4%	COc1ccc(CC(=O)NCc2nc3cccnc3n2Cc2ccc(C)cc2)cc1OC
5.7%	CC(C)Cc1nn2c(=O)cc(COC(=O)c3ccc4c(c3)OCO4)nc2s1
-0.1%	COCCCNC(=O)Cn1c(=O)n(CCCC(=O)NCc2ccc(C)cc2)c(=O)c2ccccc21
-1.1%	CC(C)c1ccc(NC(=O)c2cn(C3CCCCC3)c(=O)c3c2c2ccccc2n3C)cc1
5.6%	Cc1cc(C)n2nc(CNS(=O)(=O)c3cccc(Cl)c3)nc2n1
8.4%	CCOc1ccc(S(=O)(=O)N2CCN(Cc3nc4ccc(C)cc4o3)CC2)cc1
11.6%	Cc1ccc(C(=O)CC2(O)C(=O)N(Cc3ccccc3F)c3ccccc32)cc1 (centres undefined)
-33.6%	CC(=O)c1ccc(S(=O)(=O)Nc2ccc(-c3ccc(N4CCCCCC4)nn3)cc2)cc1
12.6%	CC(=O)c1ccc(NC(=O)CSc2cn(CC(=O)N3CCCCC3)c3ccccc23)cc1
9.7%	CC(C)c1ccc(NC(=O)CCNS(=O)(=O)c2ccc3c(c2)CCCC(=O)N3)cc1
-0.1%	CC(C)c1ccc(/C=C(\C#N)c2nc(-c3cc4ccccc4oc3=O)cs2)cc1
3.1%	Cc1ccc(Cn2c(CN3CCN(c4cccc(Cl)c4)CC3)nc3c2c(=O)n(C)c(=O)n3C)cc1
-1.6%	Cc1ccccc1N1CCN(S(=O)(=O)c2nnc(NC(=O)c3ccc(Cl)cc3)s2)CC1
?	CCOCCCNC(=O)C(c1ccc(Cl)cc1)N(Cc1cccs1)C(=O)c1ccc(NC(C)=O)cc1 (centres undefined)
-15.5%	CCOc1cc(-c2cc(C(=O)O)c3c(-c4ccccc4)[nH]nc3n2)ccc1O
-0.3%	Cc1cccc(C)c1NC(=O)Cn1c(=O)cc(C)c2c(C)nn(-c3cccc(Cl)c3C)c21
?	CCN(CC)c1nc2ccccc2nc1C(=O)Nc1cc(OC)c(OC)c(OC)c1
-6.6%	Cc1ccc(-c2nnc(Nc3cccc(Cl)c3)c3ccccc23)cc1S(=O)(=O)NCC1CCCO1 (centres undefined)
-27.8%	COc1ccc(CNC(=O)C(=O)Nc2ccccc2OC)cc1
24.0%	Cc1ccc(C(=O)CC2(O)C(=O)N(Cc3ccccc3)c3ccc(Br)cc32)cc1 (centres undefined)
8.4%	COc1ccc(NC(=O)CSc2nc(-c3ccc(OC)cc3)[nH]c2-c2ccc(F)cc2)cc1
5.1%	Cc1coc2cc3oc(=O)c(CC(=O)NCCc4ccccc4)c(C)c3cc12
29.5%	Cc1cccc(C)c1NC(=O)CN(C)S(=O)(=O)c1ccc2[nH]c3c(c2c1)CCCC3
-10.7%	COc1ccc(CNC(=O)CCc2c(C)c3ccc(OC)c(C)c3oc2=O)cc1OC
-6.6%	COc1ccc(CNC(=O)C2CCN(C(=O)[C@@H](CC(C)C)NC(=O)OC(C)(C)C)CC2)cc1
-0.8%	COCCNC(=O)c1sc2ncccc2c1-n1c(C)ccc1C
-6.8%	COc1cc(CNC(=O)c2ccc3c(c2)N(C)C(=O)C2CCCCN32)cc(OC)c1OC (centres undefined)
-1.6%	COc1cccc2sc(N(Cc3cccnc3)C(=O)C3COc4ccccc4O3)nc12 (centres undefined)
?	CCCN(CCC)CCCNC(=O)C1CCN(c2nc3ccc(CC)cc3s2)CC1
11.7%	CC(=O)c1cccc(NC(=O)CC(c2ccc(C)cc2)N2Cc3ccccc3C2=O)c1 (centres undefined)
-0.9%	Cc1cccc(C(=O)Nc2ccccc2OCc2cc(=O)n3ccccc3n2)c1
2.7%	Cc1c(Cl)cccc1NC(=O)CCn1c(=O)c2cccn2c2ccccc21
-0.7%	COc1ccc(-n2nc(C(=O)N3CCC(C)CC3)c3c4ccccc4n(C)c3c2=O)cc1Cl
24.6%	Cc1cc(NCc2ccccc2Cl)n2cnnc2n1
-16.8%	COc1ccccc1-c1noc(-c2ccc(NCCc3ccccc3)c([N+](=O)[O-])c2)n1
4.7%	Cc1ccc(CCNC(=O)c2ccc3c(c2)N(Cc2cccc(C)c2)C(=O)c2ccccc2S3(=O)=O)cc1
2.3%	CCOc1ccccc1NC(=O)Cn1c(=O)n(Cc2cccs2)c(=O)c2cccnc21
-2.0%	O=C(CCC1N=C2c3ccccc3N=C(SCC(=O)Nc3ccc(F)cc3)N2C1=O)NCc1cccs1 (centres undefined)
?	Cc1ccc(NC(=O)Cn2nc(-c3ccncc3)ccc2=O)cc1Cl
3.4%	COc1cc(NS(=O)(=O)c2ccc(NC(=O)c3cccc(F)c3)cc2)nc(OC)n1
-7.2%	Cc1cc(C)cc(-n2ccnc2SCC(=O)Nc2nc3ccc(C)cc3s2)c1
15.9%	Cc1noc2ncnc(NCCc3ccccc3)c12
-36.8%	Cc1nn(C(C)C(=O)N2CCN(c3ccc(F)cc3)CC2)c(=O)c2c1sc1ccccc12 (centres undefined)
-0.2%	CCc1ccc(NC(=O)CN(c2ccc(C)cc2)S(=O)(=O)c2cccs2)cc1
-0.3%	COC(=O)c1ccccc1NC(=O)Cn1nc(C)c2nn(-c3ccc(Cl)cc3)c(C)c2c1=O
19.9%	Cc1c2cnn(CC(=O)NCc3ccc(F)cc3)c(=O)c2c(C)n1Cc1ccccc1Cl
-3.9%	CCc1ccc2oc(C(=O)Nc3cc(Cl)ccc3OC)cc(=O)c2c1
-0.2%	CN(C(=O)c1c[nH]c2ccc(S(=O)(=O)Nc3cccc(C(F)(F)F)c3)cc2c1=O)C1CCCCC1
-7.6%	CCC(C)n1c(=N)c(C(=O)NCc2ccccc2)cc2c(=O)n3cc(C)ccc3nc21 (centres undefined)
-5.9%	CCc1cccc(C)c1Nc1c(-c2cccc(O)c2)nc2cnccn12

7 of the entries above in order of their number in miR-21 reporter, falling.
canonical_smiles	miR-21 reporter
Cc1c2cnn(CC(=O)NCc3ccc(F)cc3)c(=O)c2c(C)n1Cc1ccccc1Cl	19.9%
Cc1ccc(CCNC(=O)c2ccc3c(c2)N(Cc2cccc(C)c2)C(=O)c2ccccc2S3(=O)=O)cc1	4.7%
CCOc1ccccc1NC(=O)Cn1c(=O)n(Cc2cccs2)c(=O)c2cccnc21	2.3%
CCc1ccc(NC(=O)CN(c2ccc(C)cc2)S(=O)(=O)c2cccs2)cc1	-0.2%
CCc1ccc2oc(C(=O)Nc3cc(Cl)ccc3OC)cc(=O)c2c1	-3.9%
CCC(C)n1c(=N)c(C(=O)NCc2ccccc2)cc2c(=O)n3cc(C)ccc3nc21 (centres undefined)	-7.6%
Cc1nn(C(C)C(=O)N2CCN(c3ccc(F)cc3)CC2)c(=O)c2c1sc1ccccc12 (centres undefined)	-36.8%

(cont.)
miR-21 reporter	SMILES
-7.8%	Cc1nn2c(=O)cc(COC(=O)c3ccccc3NC(=O)C(C)Oc3ccccc3)nc2s1 (centres undefined)
-2.9%	Oc1ccc(Cl)cc1Nc1nc2ccccc2n2cnnc12
8.8%	COc1ccc(CNC(=O)Cn2nc(N3CCN(c4ccccc4)CC3)ccc2=O)c(OC)c1
7.8%	CC1CCN(C(=O)Cn2cc(SCC(=O)NCc3ccccc3)c3ccccc32)CC1
?	Cc1ccccc1CNC(=O)c1cccc(NC(=O)N2CCSc3ncccc32)c1
1.7%	COc1ccc(Oc2nc3c(c(=O)n(C)c(=O)n3C)n2Cc2ccccc2Cl)cc1
21.4%	COc1ccccc1CNC(=O)c1ccc(N2CCCC2)c(NC(=O)NCc2ccccc2)c1
8.0%	Cc1ccc(Cn2c(C(=O)O)c(CNCc3cccs3)c3ccc(C)cc32)cc1
-8.5%	Cc1ccc(CNS(=O)(=O)c2cc3c(cc2Cl)NC(=O)CO3)o1
-11.1%	COc1cccc(-c2cn3c(n2)sc2cc(C(=O)NCCC4=CCCCC4)ccc23)c1
14.8%	Cc1ccc(C)c(CSC2=NC(C)(C)Nc3ccccc32)c1
-7.3%	O=C(Nc1ccccc1Cl)N1CCC2(CC1)Oc1ccccc1C(=O)N2Cc1ccc(F)cc1
22.5%	CC(=O)c1cccc(NC(=O)CN2C(=O)c3ccccc3Sc3ncccc32)c1
7.3%	Cc1ccc2c(CN3CCN(c4ccc(Cl)cc4)CC3)cc(=O)oc2c1
0.9%	COc1ccccc1N1CCN(C(=O)C(CCSC)NS(=O)(=O)c2ccc3c(c2)oc(=O)n3C)CC1 (centres undefined)
-11.6%	Cc1ccc(NC(=O)CCSc2nc(-c3ccc4c(c3)OCO4)cc(C(F)(F)F)n2)c(C)c1
-7.4%	CCOC(=O)c1c(NC(=O)c2ccc(OC)cc2)sc2c1CCCCC2
-26.7%	Cc1ccc(NC(=O)CSc2nc3ccc(NC(=O)c4ccco4)cc3s2)cc1
?	CCOC(=O)c1cc(-c2ccccc2)n(-c2cccc(C(=O)N(C)c3ccc(C)cc3)c2)c1C
0.8%	CCOC(=O)c1c(-c2ccccc2)oc2ccc(OCc3cccc(Br)c3)cc12
-3.9%	COc1ccc(S(=O)(=O)NCc2ccc(C(=O)NCc3ccccc3)cc2)cc1
-8.0%	COc1cccc(Nc2nc3ccc(C)cc3nc2-n2nc(C)cc2C)c1
0.3%	COC(=O)c1scc(-c2ccc(C)cc2)c1S(=O)(=O)Nc1c(C)cc(C)cc1C
-56.6%	COc1cccc(CC(=O)Nc2ccc(-c3nc4ccccc4s3)cc2)c1
?	CSc1cccc(Nc2cc(C(=O)NCCc3ccc(Cl)cc3)c3ccccc3n2)c1
-10.2%	Cc1ccc(-c2nc3cc(C(C)C)ccc3o2)cc1NC(=O)c1cc2ccccc2o1
-0.4%	CCSc1ncc(Cl)c(C(=O)Nc2nnc(CC)s2)n1
-1.6%	Cc1c(C(=O)OC(C)C)sc(NC(=O)C2c3ccccc3Oc3ccccc32)c1C(=O)OC(C)C
29.7%	Cc1cc(C)cc(NC(=O)C(Cc2ccccc2)NS(=O)(=O)c2ccc3c(c2)c(=O)n(C)c(=O)n3C)c1 (centres undefined)
24.7%	CCN(CC)c1ccc(NC(=O)c2sc3nc(-c4ccccc4)cn3c2C)cc1
-13.2%	O=C(CSc1nc(-c2cccs2)nc2cc(=O)[nH]n12)Nc1cccc(C(F)(F)F)c1
-4.8%	CCOC(=O)N1CCc2c(sc(NCc3sccc3C)c2C(=O)Nc2cc(OC)ccc2OC)C1
-17.7%	COc1ccc(NC(=O)Cn2c(=O)n(-c3cccc(C(F)(F)F)c3)c(=O)c3sccc32)cc1
12.3%	Cc1ccccc1CNC(=O)c1sc2ncnc(N(C)C3CCCCC3)c2c1C
9.3%	CCOc1ccc(S(=O)(=O)c2cn(Cc3ccccc3C)c3ccc(OC)cc3c2=O)cc1
25.5%	Cc1cc(-c2ccc(C)c(S(=O)(=O)Nc3ccccc3C(F)(F)F)c2)on1
-2.9%	COc1ccc(C)cc1NC(=O)c1cc(S(=O)(=O)N2CCC(C)CC2)ccc1F
-8.1%	Cc1ccc(Sc2c(C)nn(C(=O)COc3ccc(F)cc3)c2C)cc1
-32.8%	O=C(Nc1cccc(Cl)c1)N1CCC(CN2CCOCC2)CC1
-2.1%	Cn1c(=O)[nH]c(=O)c2c1nc(NCCO)n2CC(O)COc1ccccc1 (centres undefined)
-0.9%	O=C(COc1ccc(F)cc1)Nc1ccccc1OCc1cc(=O)n2ccccc2n1
-3.2%	Cc1ccc(Cc2cnc(NC(=O)C3Cc4ccc(C)cc4C(=O)O3)s2)cc1 (centres undefined)
7.5%	O=C(NCCc1ccccc1)c1nn(-c2ccccc2Cl)nc1CO
-5.5%	CCOc1ccc(C2CC(=O)c3c([nH]c(C(=O)OCC4CCCCC4)c3C)C2)cc1 (centres undefined)
-51.7%	Cc1cc2nc(-c3cccc(NC(=O)CSc4ccc(Cl)cc4)c3)oc2cc1C

In the list so far, two contain bromine.
miR-21 reporter	SMILES
24.0%	Cc1ccc(C(=O)CC2(O)C(=O)N(Cc3ccccc3)c3ccc(Br)cc32)cc1 (centres undefined)
0.8%	CCOC(=O)c1c(-c2ccccc2)oc2ccc(OCc3cccc(Br)c3)cc12

(list continues)
miR-21 reporter	SMILES
-57.9%	O=C(c1cc(COc2ccc3c(c2)CCCC3)on1)N1CCCC1
8.6%	CCOC(=O)C1CCC(CN(Cc2ccc(Cl)cc2)S(=O)(=O)c2ccc(Br)cc2)CC1 (centres undefined)
-18.7%	COc1ccccc1C(=O)Nc1ccc(S(=O)(=O)Nc2nc(C)cc(C)n2)cc1
3.2%	COc1ccccc1NC(=O)c1cc(S(=O)(=O)N(C)C2CCCCC2)ccc1F
27.9%	Cc1ccc(C)c(CSc2cn(CCNC(=O)c3ccccc3F)c3ccccc23)c1
5.5%	COc1cc2c(cc1OC)C(COc1cc(C)cc(C)c1)N(C(=O)C(C)(C)C)CC2 (centres undefined)
-5.2%	COc1ccc(N2CCN(C(CNC(=O)c3c(F)cccc3F)c3ccc4c(c3)OCO4)CC2)cc1 (centres undefined)
-7.2%	CCOC(=O)Cc1ccc(NC(=O)N2CCOc3ccc(C)cc32)cc1
20.6%	CCOc1ccc(N(CC)S(=O)(=O)N2CCCC(C(=O)NCc3ccccc3Cl)C2)cc1 (centres undefined)
